UUG fidelity = modulators of yeast start codon fidelity, primary screen, whole organism, S. cerevisiae, single point, plate reader; S. cerevisiae UUG-firefly luciferase reporter, luminescence/redox ratio; AID 602363, 2012; activity score, % at 18.7 µM; 350,000 compounds, 0.13% hits;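 active = replicate mean at a twofold rise or more, about +100% in these data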;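 also: firefly luciferase made from a UUG start codon reports start codon fidelity; reporter light over untreated wells divided by growth signal over untreated wells; some hits fall short of that in this replicate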
Env fusion inh = inhibitors of HIV-1 Env-driven cell-cell fusion, primary screen, HeLa-JRFL effector, CEM21 target cells, luciferase. AID 651610, 2012. inhibition, % at 12.3 µM. 360,000 compounds, 1.1% hits;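 active = mean replicate inhibition score of at least 50 and every replicate individually at or above 50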;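 also: 0% = plate neutral controls and 100% = maraviroc near 300 nM; one replicate is shown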
The depositor's hits bear a star; [ ] = another dose, or the depositor's remark. This is a subset; count on the stated rates, not on these rows.

no. | SMILES | UUG fidelity | Env fusion inh
1 | COC(=O)[C@@]1(CCC(=O)OC(C)(C)C)N=C(c2ccc(OCCCO)cc2)O[C@H]1c1ccccc1 | 14 | 3[16.7 µM]
2 | CCCNC(=O)C[C@@H]1CC[C@H]2[C@H](COc3ccc(NC(=O)Cc4cccs4)cc3C(=O)N2C)O1 | 11 | 2[16.7 µM]
3 | COc1ccc(NC(=O)Nc2ccc3c(c2)[C@@H]2C[C@@H](CC(=O)N4CCOCC4)O[C@@H](CO)[C@@H]2O3)cc1 | -2 | 4[16.7 µM]
4 | CCCNC(=O)N1C[C@@H](O)COC[C@@H]2O[C@H](CC(=O)NCc3ccc(Cl)c(Cl)c3)CC[C@H]21 | -8 | 6[16.7 µM]
5 | CO[C@@H]1CN(C)C(=O)c2ccc(NC(=O)C3CC3)cc2OC[C@@H](C)N(CCc2ccccc2)C[C@@H]1C | 19 | 13[16.7 µM]
6 | Cc1ccc(S(=O)(=O)Nc2ccc3c(c2)C(=O)N([C@@H](C)CO)C[C@@H](C)[C@H](CN(C)C(=O)CCCN(C)C)OCCCC[C@H](C)O3)cc1 | 17 | 16[16.7 µM]
7 | COc1ccc(S(=O)(=O)N(C)C[C@H]2OCCCC[C@@H](C)Oc3ccc(NC(=O)Nc4ccc(C(F)(F)F)cc4)cc3C(=O)N([C@H](C)CO)C[C@@H]2C)cc1 | 14 | -21[16.7 µM]
8 | O=C(C[C@H]1C[C@H]2c3cc(NS(=O)(=O)c4ccc(F)cc4)ccc3O[C@H]2[C@H](CO)O1)NC1CCCC1 | -13 | 5[16.7 µM]
9 | Cc1ccccc1S(=O)(=O)N1[C@H](C#N)[C@H](c2ccc(-c3ccc(F)cc3)cc2)[C@@H]1CO | 1 | 33[16.7 µM]
10 | COc1ccc(CNC(=O)C[C@H]2C[C@@H]3c4cc(NC(=O)CC5CC5)ccc4O[C@@H]3[C@@H](CO)O2)cc1 | -8 | 5[16.7 µM]
11 | C[C@H](CO)N1C[C@H](C)[C@H](CN(C)S(C)(=O)=O)Oc2ccc(NC(=O)Cc3cn(C)c4ccccc34)cc2C1=O | 0 | 4[16.7 µM]
12 | CC(C)CC#Cc1cnc2c(c1)C(=O)N([C@@H](C)CO)C[C@@H](C)[C@@H](CN(C)C(=O)Cc1ccccc1)O2 | -2 | 26[16.7 µM]
13 | C[C@@H]1CCCCO[C@H](CN(C)S(=O)(=O)c2ccccc2)[C@@H](C)CN([C@@H](C)CO)C(=O)c2cc(NC(=O)CCCN(C)C)ccc2O1 | 20 | 4[16.7 µM]
14 | C[C@H](CO)N1C[C@H](C)[C@H](CN(C)S(=O)(=O)c2ccccc2)OCCCC[C@H](C)Oc2ccc(NC(=O)NC3CCCCC3)cc2C1=O | -1 | -99[16.7 µM]
15 | C[C@H](CO)N1C[C@H](C)[C@H](CN(C)S(=O)(=O)c2ccccc2)OCCCC[C@H](C)Oc2ccc(NC(=O)Nc3cccc4ccccc34)cc2C1=O | -13 | -39[16.7 µM]
16 | C[C@H](CO)N1C[C@H](C)[C@@H](CN(C)Cc2ccc(C(F)(F)F)cc2)Oc2ccc(NC(=O)CCN3CCOCC3)cc2CC1=O | 2 | -11[16.7 µM]

An excerpt from above in order of their number in UUG fidelity, falling:
#	SMILES	UUG fidelity	Env fusion inh
13	C[C@@H]1CCCCO[C@H](CN(C)S(=O)(=O)c2ccccc2)[C@@H](C)CN([C@@H](C)CO)C(=O)c2cc(NC(=O)CCCN(C)C)ccc2O1	20	4[16.7 µM]
5	CO[C@@H]1CN(C)C(=O)c2ccc(NC(=O)C3CC3)cc2OC[C@@H](C)N(CCc2ccccc2)C[C@@H]1C	19	13[16.7 µM]
6	Cc1ccc(S(=O)(=O)Nc2ccc3c(c2)C(=O)N([C@@H](C)CO)C[C@@H](C)[C@H](CN(C)C(=O)CCCN(C)C)OCCCC[C@H](C)O3)cc1	17	16[16.7 µM]
9	Cc1ccccc1S(=O)(=O)N1[C@H](C#N)[C@H](c2ccc(-c3ccc(F)cc3)cc2)[C@@H]1CO	1	33[16.7 µM]
11	C[C@H](CO)N1C[C@H](C)[C@H](CN(C)S(C)(=O)=O)Oc2ccc(NC(=O)Cc3cn(C)c4ccccc34)cc2C1=O	0	4[16.7 µM]
15	C[C@H](CO)N1C[C@H](C)[C@H](CN(C)S(=O)(=O)c2ccccc2)OCCCC[C@H](C)Oc2ccc(NC(=O)Nc3cccc4ccccc34)cc2C1=O	-13	-39[16.7 µM]

(listing goes on)
no. | SMILES | UUG fidelity | Env fusion inh
17 | CN1C(=O)c2cc(NC(=O)c3cscn3)ccc2OC[C@@H]2O[C@H](CC(=O)N3CCCCC3)CC[C@H]21 | -1 | -10[16.7 µM]
18 | C[C@@H]1CCCCO[C@@H](CN(C)S(=O)(=O)c2ccccc2)[C@@H](C)CN([C@@H](C)CO)C(=O)c2cc(NS(=O)(=O)c3ccccc3)ccc2O1 | -11 | -10[16.7 µM]
19 | C[C@@H]1CN([C@H](C)CO)C(=O)c2cc(NC(=O)Nc3ccc(F)cc3)ccc2O[C@H]1CN(C)S(=O)(=O)c1ccc(F)cc1 | -2 | 4[16.7 µM]
20 | COc1ccc(S(=O)(=O)N(C)C[C@H]2Oc3ccc(NC(=O)C4CC4)cc3CC(=O)N([C@H](C)CO)C[C@@H]2C)cc1 | 8 | 13[16.7 µM]
21 | C[C@@H]1CN([C@@H](C)CO)C(=O)Cc2cc(NS(=O)(=O)c3cn(C)cn3)ccc2O[C@H]1CN(C)S(=O)(=O)c1cn(C)cn1 | 11 | -2[16.7 µM]
22 | C[C@H](CO)N1C[C@H](C)[C@@H](CN(C)Cc2ccc(C(F)(F)F)cc2)OCCCC[C@H](C)Oc2ccc(NS(=O)(=O)c3ccc(F)cc3)cc2C1=O | 16 | 18[16.7 µM]
23 | O=C(Cc1ccccn1)NCC[C@@H]1CC[C@@H](NC(=O)CN2CCOCC2)[C@H](CO)O1 | -2 | 18[16.7 µM]
24 | O=C(NCC[C@@H]1CC[C@@H](NC(=O)C2CC2)[C@@H](CO)O1)c1cc(Cl)cc(Cl)c1 | 9 | -6[16.7 µM]
25 | C[C@H]1CN([C@@H](C)CO)C(=O)c2cc(C#Cc3cccnc3)cnc2O[C@H]1CN(C)S(C)(=O)=O | 1 | -5[16.7 µM]
26 | COC(=O)C[C@@H]1CC[C@H]2[C@H](COc3ccc(NC(=O)c4ccc(OC)cc4)cc3C(=O)N2C)O1 | -18 | 11[16.7 µM]
27 | CCC(=O)N(C)C[C@@H]1Oc2ncc(-c3cccc(OC)c3)cc2C(=O)N([C@H](C)CO)C[C@@H]1C | 7 | -23[16.7 µM]
28 | C[C@@H]1CN([C@H](C)CO)C(=O)c2cc(-c3ccccc3)cnc2O[C@H]1CN(C)Cc1cccnc1 | -5 | -4[16.7 µM]
29 | C[C@H](CO)N1C[C@H](C)[C@H](CN(C)C)OCCCC[C@H](C)Oc2ccc(N(C)C)cc2C1=O | 1 | 1[16.7 µM]
30 | COC(=O)C[C@H]1CC[C@H]2[C@H](COc3ccc(NC(=O)Nc4ccccc4C)cc3C(=O)N2C)O1 | 6 | 2[16.7 µM]
31 | C[C@@H]1CN([C@@H](C)CO)C(=O)Cc2cc(NC(=O)CCN3CCOCC3)ccc2O[C@H]1CN(C)S(C)(=O)=O | 8 | -8[16.7 µM]
32 | COc1cccc(NC(=O)N(C)C[C@H]2Oc3ncc(C#Cc4cccnc4)cc3C(=O)N([C@H](C)CO)C[C@H]2C)c1 | 6 | 9[16.7 µM]
33 | COc1ccc(S(=O)(=O)N(C)C[C@H]2OCCCC[C@H](C)Oc3ccc(NS(=O)(=O)c4ccccc4)cc3C(=O)N([C@@H](C)CO)C[C@@H]2C)cc1 | 13 | 18[16.7 µM]
34 | COCC(=O)N(C)C[C@@H]1Oc2ncc(-c3cccc(OC)c3)cc2C(=O)N([C@H](C)CO)C[C@@H]1C | 5 | 10[16.7 µM]
35 | C[C@@H]1CCCCO[C@@H](CN(C)Cc2ccc(C(F)(F)F)cc2)[C@@H](C)CN([C@@H](C)CO)C(=O)c2cc(NS(=O)(=O)c3ccccc3)ccc2O1 | 5 | -39[16.7 µM]
36 | C[C@@H]1CN([C@H](C)CO)C(=O)Cc2cc(NC(=O)C3CC3)ccc2O[C@H]1CN(C)Cc1ccccc1 | -9 | -4[16.7 µM]
37 | C[C@@H]1CN([C@H](C)CO)S(=O)(=O)c2ccc(C#CC(C)(C)O)cc2O[C@H]1CN(C)CC1CC1 | 7 | -9[16.7 µM]
38 | NC(=O)[C@@H]1[C@H]2C(=O)O[C@H](c3ccccc3)[C@H](c3ccccc3)N2[C@H](c2ccccc2OCCO)[C@@]12C(=O)Nc1ccc(C#CCCO)cc12 | -2 | -112[16.7 µM]
39 | O=C(C[C@H]1CC[C@H](NC(=O)NC2CCCC2)[C@@H](CO)O1)NCc1ccc(F)cc1 | 3 | 5[16.7 µM]
40 | Cc1ccc(S(=O)(=O)Nc2cccc3c2O[C@H](CN(C)Cc2ccncc2)[C@H](C)CN([C@H](C)CO)C3=O)cc1 | -7 | 8[16.7 µM]

4 entries drawn at random from those above:
no. | SMILES | UUG fidelity | Env fusion inh
38 | NC(=O)[C@@H]1[C@H]2C(=O)O[C@H](c3ccccc3)[C@H](c3ccccc3)N2[C@H](c2ccccc2OCCO)[C@@]12C(=O)Nc1ccc(C#CCCO)cc12 | -2 | -112[16.7 µM]
33 | COc1ccc(S(=O)(=O)N(C)C[C@H]2OCCCC[C@H](C)Oc3ccc(NS(=O)(=O)c4ccccc4)cc3C(=O)N([C@@H](C)CO)C[C@@H]2C)cc1 | 13 | 18[16.7 µM]
36 | C[C@@H]1CN([C@H](C)CO)C(=O)Cc2cc(NC(=O)C3CC3)ccc2O[C@H]1CN(C)Cc1ccccc1 | -9 | -4[16.7 µM]
35 | C[C@@H]1CCCCO[C@@H](CN(C)Cc2ccc(C(F)(F)F)cc2)[C@@H](C)CN([C@@H](C)CO)C(=O)c2cc(NS(=O)(=O)c3ccccc3)ccc2O1 | 5 | -39[16.7 µM]

Additional structures follow:
no. | SMILES | UUG fidelity | Env fusion inh
41 | Cc1ccc(S(=O)(=O)Nc2ccc3c(c2)C(=O)N([C@@H](C)CO)C[C@@H](C)[C@@H](CN(C)Cc2ccncc2)OCCCC[C@H](C)O3)cc1 | 2 | -22[16.7 µM]
42 | COc1ccc(NC(=O)Nc2ccc3c(c2)C(=O)N([C@H](C)CO)C[C@H](C)[C@@H](CN(C)C(=O)Nc2ccc(F)cc2)OCCCC[C@H](C)O3)cc1 | -4 | -18[16.7 µM]
43 | CC(C)C#Cc1cnc2c(c1)C(=O)N([C@H](C)CO)C[C@H](C)[C@H](CN(C)C(=O)c1cnccn1)O2 | 3 | -41[16.7 µM]
44 | COc1ccc(S(=O)(=O)N(C)C[C@@H]2OCCCC[C@@H](C)Oc3ccc(NS(=O)(=O)c4ccc(C)cc4)cc3C(=O)N([C@@H](C)CO)C[C@@H]2C)cc1 | -5 | -51[16.7 µM]
45 | Cc1ccc(S(=O)(=O)Nc2cccc3c2O[C@H](CN(C)Cc2ccc(C(=O)O)cc2)[C@H](C)CN([C@H](C)CO)C3=O)cc1 | -8 | 8[16.7 µM]
46 | COCC(=O)Nc1ccc2c(c1)[C@@H]1C[C@@H](CC(=O)N3CCCCC3)O[C@@H](CO)[C@@H]1O2 | 8 | 3[16.7 µM]
47 | Cc1cc(C(=O)Nc2cccc3c2O[C@H](CN(C)S(C)(=O)=O)[C@@H](C)CN([C@H](C)CO)C3=O)n(C)n1 | -4 | 0[16.7 µM]
48 | C#Cc1ccc([C@H]2C=C(C(=O)O)O[C@@H](OCC)[C@@H]2CCCO)cc1 | -1 | 3[16.7 µM]
49 | O=C(NCC[C@H]1CC[C@@H](NC(=O)C2CCCC2)[C@@H](CO)O1)c1cnccn1 | 4 | -3[16.7 µM]
50 | C[C@H](NC(=O)C[C@H]1C=C[C@H](NC(=O)C2CC2)[C@H](CO)O1)c1ccccc1 | -3 | -1[16.7 µM]
51 | C[C@@H]1CCCCO[C@@H](CN(C)S(C)(=O)=O)[C@H](C)CN([C@H](C)CO)C(=O)c2cc(NC(=O)Cc3ccccc3)ccc2O1 | 4 | -37[16.7 µM]
52 | CCCN(C)C[C@H]1OCCCC[C@@H](C)Oc2ccc(NS(=O)(=O)c3ccccc3)cc2C(=O)N([C@@H](C)CO)C[C@H]1C | 29 | -7[16.7 µM]
53 | CCCN(C)C[C@@H]1Oc2cc(C#Cc3ccc(OC)cc3)ccc2S(=O)(=O)N([C@@H](C)CO)C[C@@H]1C | -9 | 13[16.7 µM]
54 | COc1ccc(NC(=O)Nc2ccc3c(c2)C(=O)N([C@@H](C)CO)C[C@H](C)[C@H](CN(C)S(=O)(=O)c2ccccc2)OCCCC[C@@H](C)O3)cc1 | -1 | -2[16.7 µM]
55 | CCCNC(=O)C[C@H]1CC[C@@H]2[C@H](COc3ccc(NC(=O)c4ccc(Cl)cc4)cc3C(=O)N2C)O1 | 20 | 10[16.7 µM]
56 | C[C@@H]1CN([C@H](C)CO)C(=O)c2cc(C#CCC3CCCC3)cnc2O[C@H]1CN(C)CC1CCOCC1 | 20 | 9[16.7 µM]
57 | Cc1noc(C)c1S(=O)(=O)Nc1ccc2c(c1)CC(=O)N([C@H](C)CO)C[C@H](C)[C@@H](CN(C)CC1CCCCC1)O2 | 1 | 7[16.7 µM]
